Screening results deposited in PubChem BioAssay by National Center for Advancing Translational Sciences (NCATS).
Vaccinia Venus: vaccinia inhibition (Venus reporter); Vaccinia virus Venus reporter expression, fluorescence; 0.46% of 330,000 active; Potency, µM (series often up to 36.5 µM), without a hit: at the top dose activity change, negative = inhibition, usual class: inhibitors; AID 720580; active means well fitted inhibition curve with a large enough effect; inconclusive means small, poorly fitted or top-dose-only effect; inactive means no such curve, though single readings can be large or run the other way; tested in A549 cells; further: nearly all actives have a fitted effect of over 30% in size; inactives centre near -10
VACV mCherry inh: vaccinia inhibition (mCherry reporter). Vaccinia virus mCherry reporter infection, fluorescence; about a quarter of the inactives have no number. Potency, µM (doses to about 36.5 µM), inactives show top-dose activity change, negative = inhibition, hits mostly inhibitors. 0.63% of 310,000 active. AID 720579; active = well fitted inhibition curve with a large enough effect; inconclusive = small, poorly fitted or top-dose-only effect; inactive = no such curve, though single readings can be large or run the other way; tested in A549 cells; further: nearly all actives have a fitted effect of over 35% in size; inactives centre near -10
Active calls of the source: *; i = inactive; ? = inconclusive; · = no result given; [ ] = remark or other dose. On the % scale 0 is the no-effect control and ±100 the full control effect; potency means the concentration at half of the fitted maximal effect.

molecule	Vaccinia Venus	VACV mCherry inh
CC1CCCC2(C1)NC(=S)c1c(sc3c1CCCC3)N2 (stereo not drawn)	-8%	-15%
O=C(Nc1ccccc1)c1cc(C2CCCCN2C(=O)CCc2ccccc2)on1 (stereo not drawn)	-10%	14%
O=C(NC(=S)Nc1cccnc1)c1cc2ccccc2o1	-6%	-14%
O=C(Nc1ccccc1[N+](=O)[O-])C1(c2ccccc2)CCOCC1	-6%	-2%
Cc1ccc(Cn2c(C)nc3c(c2=O)c2nc4ccccc4nc2n3Cc2ccco2)cc1	-17%	?
O=C(CCS(=O)(=O)c1nc(-c2ccc3c(c2)OCO3)cc(C(F)(F)F)n1)Nc1ccccc1C(F)(F)F	-12%	i
O=C(/C=C/c1ccc(O)cc1)c1ccccc1	-4%	-1%
COc1ccc(NC(=O)C(OC)c2ccccc2)cc1Cl (stereo not drawn)	-7%	-8%
Cc1ccc(Cn2ncc3c(N4CCN(CC#N)CC4)ncnc32)cc1	-18%	-1%
COc1ccc(OC)c(S(=O)(=O)NNC(=S)Nc2ccc3c(c2)OCO3)c1	-24%	i
COC(=O)c1ccc(-n2c(/C=C\c3cccc(Br)c3)nc3ccccc3c2=O)cc1	-28%	?
COc1cc(OC)cc(C(=O)NC2CCN(C(=O)N3c4ccccc4Sc4ccccc43)CC2)c1	-28%	-21%
CCOC(=O)c1ccccc1NC(=O)CSc1nc2ccccc2c(=O)[nH]1	-14%	-3%
COc1ccc(-c2c(C(C)=O)c(C)nc3sc4c(=N)n(N)cnc4c23)cc1	13µM*	7.1µM*
CC[n+]1c(/C=C/N(C)c2ccccc2)oc2ccc(F)cc21	-17%	-26%
C=CC[N+](C)(C)CCCNC(=O)/C=N/O	-9%	-6%
CCCC(=Nc1ccc(N)cc1)C1=C(O)C(C(=O)OC)C(C)(C)CC1=O (stereo not drawn)	40%[activator]	13%
CC1(C)Cc2c(ccc3ccccc23)C(NNC(=O)c2cccnc2)=N1	?	·
Cc1noc(C)c1NC(=O)N(C)C[C@H]1Oc2c(cccc2N(C)C)C(=O)N([C@H](C)CO)C[C@@H]1C	-11%	i
COc1cccc(C(=O)Nc2ccc(F)c(F)c2F)c1	5%	-3%
O=C(CC(O)(c1ccccc1)C(F)(F)F)c1cccs1 (stereo not drawn)	-16%	-19%
CC(C)c1ccc(C2(C)NC(=O)N(CC(=O)NC3(C#N)CCCC3)C2=O)cc1 (stereo not drawn)	-12%	-5%
CC(C)(C)OC(=O)N1CCCC(C(=O)Nc2cccc(C(=O)NC3CC3)c2)C1 (stereo not drawn)	-2%	9%
Cc1cccc(C(=O)N[C@H](C(=O)Nc2nc3ccc(S(C)(=O)=O)cc3s2)C(C)C)c1	-21%	-10%
COc1ccc(NC(=O)C2CCCN(S(=O)(=O)c3c(C)n[nH]c3C)C2)cc1OC (stereo not drawn)	-8%	i
CC(C)NC(=O)NC(=O)COC(=O)c1ncc(Cl)c(Cl)c1Cl	-7%	-16%
O=C(NNC(=O)C1C2C=CC(C2)C1C(=O)O)c1ccccc1O (stereo not drawn)	1%	-27%
CC(C)n1c(SCC(=O)Nc2nncs2)nnc1-c1ccco1	-18%	-4%
CC(=O)Nc1ccc2c(c1)nc1n2CCSC1	-3%	i
COc1ccc(NC(=O)C(Cc2ccccc2)NS(=O)(=O)c2ccc(Br)s2)cc1OC (stereo not drawn)	1%	i
CCOC(=O)C1(C(F)(F)F)N=C(C(F)(F)F)Nc2ccc(F)cc21 (stereo not drawn)	-5%	0%
O=C(/C=C/c1cccc([N+](=O)[O-])c1)NCCN1CCOCC1	-13%	i
CCC1=C(OC(=O)N(CC)CC)N2C(=O)OC(=NCC3CC3)[C@]2(C)[C@H]2C1=CC[C@H]1C(=O)N(CC)C(=O)[C@H]12	-7%	i
Cc1ccc(OCC(=O)Nc2ccc(S(=O)(=O)N3CCOCC3)cc2)c([N+](=O)[O-])n1	7%	-1%
COc1cc(C(=O)OCCCOC(=O)c2cc(OC)c(OC)c(OC)c2)cc(OC)c1OC	-7%	-1%
COC(=O)CCCn1cc(CN2CC(N3CCN(C)CC3)CS2(=O)=O)nn1 (stereo not drawn)	7%	26%
C[n+]1ccc(/C=C/c2ccc(C=S)cc2)c2ccccc21	112%[activator]	9%
CC(=O)N/N=C(\C)c1cccc(NC(=O)c2cccs2)c1	0%	-4%
O=C(O)c1ccc(NS(=O)(=O)Cc2ccc(Cl)c(Cl)c2)cc1	-15%	-3%
CC(=O)N1CCN(C(C)=O)c2ccccc21	0%	i
CCCCn1c(O)c(N=NC(=O)Cn2c(C(F)(F)F)nc3ccccc32)c2ccccc21	-5%	-7%
CCOc1cc(C(=O)OCC(=O)Nc2ccc(SC(F)F)cc2)cc(OCC)c1OCC	0%	-16%
COC(=O)c1sc(N)nc1C(C)(C)C	-15%	·
CCOC(=O)c1nnn(-c2nonc2N)c1CN(CC)CC	-4%	·
CC1=CN2C(=NC(=O)CC2(C)C(=O)N(CC(=O)NC2CCCC2)Cc2ccc(Cl)cc2)C=C1 (stereo not drawn)	-5%	-8%
CCS(=O)(=O)N1CCN(c2cc3c(cc2[N+](=O)[O-])n(C)c(=O)n3C)CC1	-8%	9%
COc1cc2c3c(c1OC)C1(C=CC(=O)C=C1)CC3N(C(C)=O)CC2 (stereo not drawn)	-1%	-3%
Cc1ccccc1C(=O)Nc1cccc(C(=O)OCc2cc(=O)n3c(C)csc3n2)c1	-19%	-11%
O=C(O)/C=C/c1cn(Cc2ccccc2)nc1-c1cccs1	1%	i
CCN(CC)S(=O)(=O)c1ccc(C(=O)NCCCn2ccnc2)cc1	-1%	-16%
N#C/C(=C\c1ccc(O)cc1)C(=O)NCC1CCCO1 (stereo not drawn)	-3%	-9%
Cc1ccc(-c2nc(C(=O)NCCCN3CCOCC3)cc3c2[nH]c2ccccc23)cc1	-20%	-13%
O=[N+]([O-])c1ccc(-c2cnc(SCc3ccccc3Cl)[nH]2)cc1	?	·
CCOC(=O)[C@]12CCCC=C1N(CCc1ccc(OC)c(OC)c1)C(=O)[C@H](CC(=O)N1CCCC1)C2	-5%	1%
COc1cc(/C=N/Nc2cccc(C)c2)ccc1OC(=O)c1cccs1	4%	-10%
Cc1ncc([N+](=O)[O-])n1CCOc1nonc1N	-15%	-3%
Cc1ccc(S(=O)(=O)NCCCNS(=O)(=O)c2ccccc2Br)cc1	-27%	i
O=C(NC(=Nc1ccccc1)N1CCOCC1)Nc1ccccc1	-12%	-12%
O=C(O)c1ccc(NS(=O)(=O)c2ccc3c(c2)C(=O)c2cc(S(=O)(=O)Nc4ccc(C(=O)O)cc4)ccc2-3)cc1	-6%	-3%
CCOc1ccc(S(=O)(=O)NC(C)C(=O)NCc2ccc3c(c2)OCO3)cc1 (stereo not drawn)	-20%	i

The list goes on:
molecule	Vaccinia Venus	VACV mCherry inh
O=c1[nH]c(=S)[nH]c2c1C(c1ccc(Cl)cc1)OC(CCc1ccccc1)C2 (stereo not drawn)	-1%	12%
COc1ccc(OC)c(-n2c(-c3cccc(S(=O)(=O)N(C)C)c3)n[nH]c2=S)c1	-15%	i
COCCNc1nc(NCc2ccc(C)cc2C)c2sccc2n1	-12%	-21%
COc1ccccc1CNC(=O)C1(C)CCN1C(=O)C1(c2ccccc2)CC1 (stereo not drawn)	-4%	-18%
CN1CCN(C(=S)Nc2ccccc2Cl)CC1	10%	·
CN(C)C(=O)CCc1ccc2c3c([nH]c2c1)[C@]1(C)[C@@H](C(=O)N2CCCCC2)C[C@H](CC(=O)NCC24CC5CC(CC(C5)C2)C4)C(=O)N1CC3	-19%	-24%
Cc1ccc(NC(=O)Cn2c(C)csc2=O)cc1	-10%	i
CCn1c(CN2CCC(C)CC2)nc2cc(NC(=O)COc3ccc(Cl)c(C)c3)ccc21	?	-24%
CCCCCCCCCCCCC/C=C/[C@@H](O)[C@H](CO)NCCCCCCCC	-12%[3.33 µM]	-12%[3.33 µM]
Cc1ccc(N(CC(=O)NC2CCCCC2)C(=O)CNC(=O)c2ccco2)cc1F	-4%	-4%
COCCN1C(=O)CN(S(C)(=O)=O)CC1(C)C(=O)NCc1ccccc1 (stereo not drawn)	-5%	-8%
Cn1cnc2c(cnn2-c2ccccc2)c1=O	-2%	i
O=C(Nc1ccc(F)cc1)C(c1cccc(F)c1)N1CCN(C(=O)c2ccco2)CC1 (stereo not drawn)	-12%	6%
COc1ccc2c(c1)S/C(=C\C(=O)c1ccncc1)N2C	-20%	-22%
CCOc1ccccc1N1CCN(C(=O)c2c(-c3ccccc3Cl)noc2C)CC1	-7%	-9%
CCOc1ccccc1NC(=O)/C=C/C(N)=O	1%	-15%
COC(=O)c1sccc1NC(=O)COc1cccc(C)c1	7%	-1%
CC(/C=N/NC(=O)Cn1nccc1C)=C\c1ccc(C(C)C)cc1	-17%	-15%
O=C(NCC1CCCO1)C(c1ccc(F)cc1)N(C(=O)Cn1nnc(-c2ccc(F)cc2)n1)c1cccc(O)c1 (stereo not drawn)	-14%	i
COc1ccc(COC[C@H](CC(C)C)N2CCN(C(=O)c3cccc(C(F)(F)F)c3)CCC2=O)cc1	-10%	-20%
Cc1ccc(C)c2[nH]c(=O)c(CCNC(=O)c3cc4ccccc4o3)cc12	-9%	-6%
COc1ccc(Nc2nc(N)nc(N)c2S(=O)(=O)c2ccccc2)cc1	-5%	-11%
Cc1ccccc1CN1CCCC(C(=O)Nc2ccc(-c3ccn[nH]3)cc2)C1 (stereo not drawn)	?	?
Cn1c(Cc2ccccc2)[n+](C)c2ccccc21	-19%	-15%
COc1ccccc1OCC(O)Cn1c(Br)nc2c1c(=O)[nH]c(=O)n2C (stereo not drawn)	-8%	·
CCCCC(=O)Nc1c(C)cc(C)cc1Cl	-6%	-14%
CCc1ccc(Nc2nc(-c3cc4cccc(OC)c4oc3=O)c(CC)s2)cc1	-16%	-14%
COc1ccc(-n2nc3c(c2NC(=O)c2ccc(S(=O)(=O)N4CCOCC4)cc2)CS(=O)C3)cc1 (stereo not drawn)	-6%	i
NC(=O)c1sc(=S)n2c1[nH]c(=O)c1sccc12	0%	-5%
Cc1ccccc1C(=O)Nc1ccc2c(c1)CCCN2C(=O)c1cccs1	15%	-18%
CCOC(=O)c1c(C)sc2c1N(C(=O)CN(CC)CC)c1cc(Cl)ccc1S2	-26%	·
CCn1c(SCC(=O)N2CCCC2)nnc1-c1ccc(N)cc1	-3%	-15%
CC(C)OCC(O)Cn1c(N2CCCC2)nc2c1c(=O)n(C)c(=O)n2C (stereo not drawn)	-11%	-3%
CC(=O)/C(C(=N)N1CCN(Cc2ccccc2)CC1)=C(\C)O	-4%	·
O=C(CSc1nncn1-c1ccccc1)Nc1ccccc1	-4%	-18%
O=C(O)c1nn(-c2cccc(C(F)(F)F)c2)ccc1=O	-8%	i

Entries above that contain an aryl thioether with sulfur outside any ring, in the order listed:
molecule	Vaccinia Venus	VACV mCherry inh
CCOC(=O)c1ccccc1NC(=O)CSc1nc2ccccc2c(=O)[nH]1	-14%	-3%
CC(C)n1c(SCC(=O)Nc2nncs2)nnc1-c1ccco1	-18%	-4%
CCOc1cc(C(=O)OCC(=O)Nc2ccc(SC(F)F)cc2)cc(OCC)c1OCC	0%	-16%
O=[N+]([O-])c1ccc(-c2cnc(SCc3ccccc3Cl)[nH]2)cc1	?	·
CCn1c(SCC(=O)N2CCCC2)nnc1-c1ccc(N)cc1	-3%	-15%
O=C(CSc1nncn1-c1ccccc1)Nc1ccccc1	-4%	-18%

(continued)
molecule	Vaccinia Venus	VACV mCherry inh
CSCCC(NS(=O)(=O)c1ccccc1F)C(=O)NNC(=O)c1csc(N2CCOCC2)n1 (stereo not drawn)	-7%	-16%
CCN(CCCNC(=O)CN1C(=O)COc2ccccc21)c1cccc(C)c1	-9%	-9%
CC1CCN(C(=O)Cn2cc3c(n2)CCCC3)CC1	-7%	-11%
Cc1ccccc1CNS(=O)(=O)c1c(C)[nH]c(C)c1C(=O)N1CCCCC1	-13%	-9%

Record cards (already shown). Order of values: Vaccinia Venus	VACV mCherry inh
Listed for `CSCCC(NS(=O)(=O)c1ccccc1F)C(=O)NNC(=O)c1csc(N2CCOCC2)n1` (stereo not drawn) → -7%	-16%
Listed for `O=[N+]([O-])c1ccc(-c2cnc(SCc3ccccc3Cl)[nH]2)cc1` → ?	·
Listed for `COc1ccc(COC[C@H](CC(C)C)N2CCN(C(=O)c3cccc(C(F)(F)F)c3)CCC2=O)cc1` → -10%	-20%
Listed for `O=C(Nc1ccccc1[N+](=O)[O-])C1(c2ccccc2)CCOCC1` → -6%	-2%
Listed for `COc1cccc(C(=O)Nc2ccc(F)c(F)c2F)c1` → 5%	-3%
